From PubChem BioAssay
A1 apoptosis 2 – A1 inhibitors via caspase activation, primary screen, cell-based, luminescence, HTS, two replicates | 24,000 tested, under 10 active | MEF A1-2A-BIM cells, caspase-Glo luminescence, 3 h; percent of clofoctol response, DMSO zero | caspase activation, % (test concentration not listed); in the data active = caspase activation above about 5.9%;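 note: wells of about 30 µL received 50 nL stock; the first replicate is given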
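system = A1-2A-BIM-expressing MEF cells | quantity = 2500 MEF cells/well | dosing = 50 nL compound per well, pinned | schedule = overnight cell settling, then 3 h compound exposure, 37 °C | signal = luminescence from DEVD-luciferin Caspase-Glo reagent, 1:1 in 50 mM HEPES, 1 h RT | read-out = Caspase-3/7 activation, seen as rise in luminescence signal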
* marks the source's active call; other numbers are inactive results.

SMILES | A1 apoptosis 2
C[C@H]1CN([C@@H](C)CO)C(=O)CCCn2cc(nn2)CO[C@H]1CN(C)C(=O)c1ccc2ccn(C)c2c1 | 1.3
COc1ccc(NC(=O)N(C)C[C@@H]2OCCCC[C@@H](C)Oc3ccc(NC(=O)Cc4ccccc4)cc3C(=O)N([C@H](C)CO)C[C@H]2C)cc1 | 0.6
Cc1ccc(S(=O)(=O)N(C)C[C@@H]2OCCCC[C@H](C)Oc3ccc(N(C)C)cc3C(=O)N([C@H](C)CO)C[C@H]2C)cc1 | 0.0
CCO[C@@H]1OC(C(=O)N2CCN(Cc3ccc4c(c3)OCO4)CC2)=C[C@H](c2ccccc2)[C@H]1CCCO | -0.2
C[C@@H]1CN([C@H](C)CO)C(=O)c2cccc(NC(=O)Nc3ccc4c(c3)OCO4)c2O[C@H]1CN(C)S(=O)(=O)c1ccccc1 | 1.4
C[C@H](CO)N1C[C@H](C)[C@H](CN(C)C(=O)Nc2ccc(F)cc2)Oc2c(NS(=O)(=O)c3cn(C)cn3)cccc2C1=O | 0.3
C[C@@H]1CN([C@@H](C)CO)C(=O)CCCn2nncc2CO[C@H]1CN(C)C | 0.0
CNC[C@@H]1Oc2ccc(N(C)C)cc2C(=O)N([C@@H](C)CO)C[C@H]1C | -0.2
Cc1ccc(S(=O)(=O)Nc2ccc3c(c2)C(=O)N([C@H](C)CO)C[C@@H](C)[C@@H](CN(C)CC2CCCCC2)OCCCC[C@@H](C)O3)cc1 | 0.0
C[C@H]1CN([C@@H](C)CO)C(=O)c2cccc(NC(=O)c3ccc(-c4nccs4)cc3)c2O[C@@H]1CN(C)S(=O)(=O)c1cn(C)cn1 | 1.0

The last six compounds of the section above lead into the next:
SMILES | A1 apoptosis 2
C[C@@H]1CN([C@H](C)CO)C(=O)c2cccc(NC(=O)Nc3ccc4c(c3)OCO4)c2O[C@H]1CN(C)S(=O)(=O)c1ccccc1 | 1.4
C[C@H](CO)N1C[C@H](C)[C@H](CN(C)C(=O)Nc2ccc(F)cc2)Oc2c(NS(=O)(=O)c3cn(C)cn3)cccc2C1=O | 0.3
C[C@@H]1CN([C@@H](C)CO)C(=O)CCCn2nncc2CO[C@H]1CN(C)C | 0.0
CNC[C@@H]1Oc2ccc(N(C)C)cc2C(=O)N([C@@H](C)CO)C[C@H]1C | -0.2
Cc1ccc(S(=O)(=O)Nc2ccc3c(c2)C(=O)N([C@H](C)CO)C[C@@H](C)[C@@H](CN(C)CC2CCCCC2)OCCCC[C@@H](C)O3)cc1 | 0.0
C[C@H]1CN([C@@H](C)CO)C(=O)c2cccc(NC(=O)c3ccc(-c4nccs4)cc3)c2O[C@@H]1CN(C)S(=O)(=O)c1cn(C)cn1 | 1.0
CC(C)NC(=O)N(C)C[C@@H]1OCCCC[C@@H](C)Oc2ccc(NC(=O)NC3CCCCC3)cc2C(=O)N([C@H](C)CO)C[C@@H]1C | -0.9
COc1ccc(NC(=O)N(C)C[C@H]2Oc3ccc(NC(=O)c4ccncc4)cc3C(=O)N([C@H](C)CO)C[C@H]2C)cc1 | -0.7
C[C@@H]1CN([C@@H](C)CO)C(=O)c2cc(NS(=O)(=O)c3cn(C)cn3)ccc2O[C@@H](C)CCCCO[C@H]1CN(C)CC1CCCCC1 | -0.8
CNC[C@H]1Oc2ccc(NC(=O)CCN3CCOCC3)cc2CC(=O)N([C@H](C)CO)C[C@H]1C | 1.7
C[C@H](CO)N1C[C@H](C)[C@H](CN(C)C(=O)Nc2ccc(F)cc2)OCCCC[C@H](C)Oc2ccc(NS(=O)(=O)c3cccs3)cc2C1=O | 0.7
COc1ccc(CN(C)C[C@H]2Oc3ccc(NC(=O)CCC(F)(F)F)cc3C(=O)N([C@H](C)CO)C[C@@H]2C)cc1 | -1.2
Cc1ccc(S(=O)(=O)N(C)C[C@H]2OCCCC[C@H](C)Oc3ccc(NC(=O)NC(C)C)cc3C(=O)N([C@H](C)CO)C[C@H]2C)cc1 | -0.6
C[C@H](CO)N1C[C@H](C)[C@@H](CN(C)Cc2ccc(Cl)c(Cl)c2)Oc2c(cccc2N(C)C)C1=O | -0.2
Cc1ccc(S(=O)(=O)N(C)C[C@@H]2OCCCC[C@@H](C)Oc3ccc(NC(=O)Nc4c(C)noc4C)cc3C(=O)N([C@@H](C)CO)C[C@@H]2C)cc1 | 0.0
C[C@@H]1CCCCO[C@@H](CN(C)C(=O)c2ccccc2)[C@H](C)CN([C@H](C)CO)C(=O)c2cc(NC(=O)Nc3ccc4c(c3)OCO4)ccc2O1 | -0.1

Reprinted at random: 2 compounds from above, in no set order.
SMILES | A1 apoptosis 2
C[C@H](CO)N1C[C@H](C)[C@@H](CN(C)Cc2ccc(Cl)c(Cl)c2)Oc2c(cccc2N(C)C)C1=O | -0.2
Cc1ccc(S(=O)(=O)N(C)C[C@@H]2OCCCC[C@@H](C)Oc3ccc(NC(=O)Nc4c(C)noc4C)cc3C(=O)N([C@@H](C)CO)C[C@@H]2C)cc1 | 0.0

Other records follow:
SMILES | A1 apoptosis 2
C[C@@H]1CCCCO[C@@H](CN(C)Cc2ccc3c(c2)OCO3)[C@@H](C)CN([C@H](C)CO)C(=O)c2cc(NS(=O)(=O)c3ccc(F)cc3)ccc2O1 | -0.4
C[C@@H]1CN([C@H](C)CO)C(=O)c2cccc(NC(=O)Nc3ccc(F)cc3)c2O[C@@H]1CN(C)S(=O)(=O)c1ccc(F)cc1 | -1.2
CNC[C@@H]1Oc2ccc(NC(=O)NC(C)C)cc2C(=O)N([C@@H](C)CO)C[C@@H]1C | -0.4
C[C@@H]1CCCCO[C@H](CN(C)CC2CC2)[C@H](C)CN([C@H](C)CO)C(=O)c2cc(NS(=O)(=O)c3ccc(F)cc3)ccc2O1 | -0.9
CC(C)NC(=O)N(C)C[C@@H]1Oc2c(NC(=O)c3ccncc3)cccc2C(=O)N([C@H](C)CO)C[C@@H]1C | -1.8
COc1ccc(NC(=O)Nc2ccc3c(c2)C(=O)N([C@@H](C)CO)C[C@H](C)[C@@H](CN(C)C(=O)c2ccccc2)OCCCC[C@H](C)O3)cc1 | 0.1
C[C@@H]1CCCCO[C@H](CN(C)C(=O)Nc2ccc(C(F)(F)F)cc2)[C@@H](C)CN([C@@H](C)CO)C(=O)c2cc(NC(=O)Nc3ccc(C(F)(F)F)cc3)ccc2O1 | 0.5
C[C@H](CO)N1C[C@H](C)[C@@H](CN(C)C)Oc2ccc(NC(=O)CCN3CCOCC3)cc2CC1=O | -0.3
C[C@H](CO)N1C[C@H](C)[C@@H](CN(C)C(=O)NC2CCCCC2)Oc2ccc(NS(=O)(=O)c3cn(C)cn3)cc2C1=O | 0.4
C[C@H](CO)N1C[C@H](C)[C@@H](CN(C)Cc2ccc(Cl)c(Cl)c2)OCCCC[C@H](C)Oc2ccc(NC(=O)c3ccncc3)cc2C1=O | -0.1
C[C@@H]1CN([C@@H](C)CO)C(=O)Cc2cc(NS(C)(=O)=O)ccc2O[C@H]1CN(C)S(C)(=O)=O | 0.8
Cc1cc(C(=O)Nc2cccc3c2O[C@H](CN(C)Cc2ccccc2)[C@@H](C)CN([C@H](C)CO)C3=O)n(C)n1 | -0.4
C[C@@H]1CN([C@H](C)CO)C(=O)Cc2cc(NC(=O)CCCCCC(=O)Nc3ccccc3N)ccc2O[C@H]1CN(C)C(=O)Nc1ccc(F)cc1 | 1.3
O=C(NO)c1ccc(C(=O)N/N=C/c2ccc(-c3ccccc3)c(F)c2)cc1 | -0.8
COc1ccc(CN(C)C[C@H]2Oc3c(NC(=O)Nc4ccc5c(c4)OCO5)cccc3C(=O)N([C@H](C)CO)C[C@H]2C)cc1 | -1.2
C[C@H]1CN([C@@H](C)CO)C(=O)c2cccc(NS(=O)(=O)c3ccc(Cl)cc3)c2O[C@H]1CN(C)Cc1ccccc1 | -0.3
COc1ccc(S(=O)(=O)N(C)C[C@@H]2Oc3ncc(-c4cc5ccccc5o4)cc3C(=O)N([C@H](C)CO)C[C@@H]2C)cc1 | 0.3
COc1ccc(CN(C)C[C@@H]2Oc3c(NS(=O)(=O)c4ccccc4)cccc3C(=O)N([C@H](C)CO)C[C@H]2C)cc1 | -0.5
COc1ccc(S(=O)(=O)N(C)C[C@H]2Oc3ccc(NC(=O)CCC(F)(F)F)cc3CC(=O)N([C@@H](C)CO)C[C@@H]2C)cc1 | 0.3
C[C@H](CO)N1C[C@H](C)[C@@H](CN(C)C(=O)NC2CCCCC2)Oc2ccc(NS(=O)(=O)c3cccs3)cc2C1=O | 0.3
Cc1noc(C)c1NC(=O)N(C)C[C@@H]1Oc2ccc(NC(=O)Nc3ccc(C(F)(F)F)cc3)cc2C(=O)N([C@@H](C)CO)C[C@H]1C | 1.3
C[C@@H]1CN([C@@H](C)CO)C(=O)c2cc(NC(=O)Nc3ccc(F)cc3)ccc2O[C@@H]1CN(C)C(=O)Nc1ccc(F)cc1 | -1.0
COc1ccc(CN(C)C[C@@H]2OCCCC[C@@H](C)Oc3ccc(NS(=O)(=O)c4ccc(C)cc4)cc3C(=O)N([C@H](C)CO)C[C@H]2C)cc1 | 0.7
COc1ccc(S(=O)(=O)Nc2ccc3c(c2)C(=O)N([C@H](C)CO)C[C@@H](C)[C@H](CN(C)Cc2ccncc2)O3)cc1 | 0.0
COc1ccc(S(=O)(=O)Nc2ccc3c(c2)C(=O)N([C@H](C)CO)C[C@@H](C)[C@H](CN(C)Cc2ccc(C(F)(F)F)cc2)O3)cc1 | -0.3
Cc1noc(C)c1NC(=O)N(C)C[C@H]1Oc2ccc(NS(=O)(=O)c3ccc(F)cc3)cc2CC(=O)N([C@@H](C)CO)C[C@H]1C | 0.7
C[C@@H]1CCCCO[C@H](CN(C)S(=O)(=O)c2cn(C)cn2)[C@@H](C)CN([C@@H](C)CO)C(=O)c2cc(NC(=O)CCC(F)(F)F)ccc2O1 | -1.0
COc1ccc(CN(C)C[C@@H]2Oc3c(NC(=O)C4CCOCC4)cccc3C(=O)N([C@@H](C)CO)C[C@H]2C)cc1 | 0.3
C[C@H]1CN([C@@H](C)CO)C(=O)c2cccc(NC(=O)CCCCCC(=O)Nc3ccccc3N)c2O[C@@H]1CN(C)Cc1ccccc1 | 0.1
C[C@@H]1CCCCO[C@@H](CN(C)C(=O)CCC(F)(F)F)[C@@H](C)CN([C@H](C)CO)C(=O)c2cc(NC(=O)Nc3ccc(F)cc3)ccc2O1 | -0.1
C[C@@H]1CN([C@@H](C)CO)C(=O)c2cccc(NS(=O)(=O)c3cn(C)cn3)c2O[C@H]1CN(C)S(=O)(=O)c1cccs1 | -0.4
COc1ccc(CN(C)C[C@@H]2Oc3ccc(NC(=O)C4CC4)cc3C(=O)N([C@@H](C)CO)C[C@H]2C)cc1 | 0.2
CC(C)NC(=O)N(C)C[C@@H]1Oc2c(NS(=O)(=O)c3cccs3)cccc2C(=O)N([C@H](C)CO)C[C@H]1C | -0.7
C[C@@H]1CN([C@H](C)CO)C(=O)c2cccc(NS(C)(=O)=O)c2O[C@H]1CN(C)Cc1ccc(Oc2ccccc2)cc1 | -1.3
C[C@@H]1CN([C@H](C)CO)C(=O)c2cc(NC(=O)Nc3ccc4c(c3)OCO4)ccc2O[C@@H]1CN(C)Cc1ccc(-c2ccccc2)cc1 | 0.1
C[C@H](CO)N1C[C@H](C)[C@@H](CN(C)C(=O)c2ccncc2)OCCCC[C@H](C)Oc2ccc(NS(=O)(=O)c3ccc(F)cc3)cc2C1=O | -0.1
Cc1noc(C)c1NC(=O)N(C)C[C@@H]1Oc2ncc(C#CC(C)(C)O)cc2C(=O)N([C@H](C)CO)C[C@@H]1C | -1.4
C[C@H]1CCCCO[C@@H](CN(C)S(=O)(=O)c2cn(C)cn2)[C@@H](C)CN([C@@H](C)CO)C(=O)c2cc(NS(=O)(=O)c3ccccc3)ccc2O1 | 0.9
C[C@@H]1CN([C@@H](C)CO)C(=O)c2cccc(NS(=O)(=O)c3cn(C)cn3)c2O[C@@H]1CN(C)C | 0.3
CC(C)NC(=O)N(C)C[C@@H]1Oc2ccc(NC(=O)C3CC3)cc2CC(=O)N([C@H](C)CO)C[C@@H]1C | 0.1
C[C@H](CO)N1C[C@H](C)[C@H](CN(C)S(=O)(=O)c2cccs2)OCCCC[C@H](C)Oc2ccc(NC(=O)Cc3ccccc3)cc2C1=O | 0.4
Cc1noc(C)c1NC(=O)Nc1cccc2c1O[C@H](CN(C)C(=O)NC1CCCCC1)[C@H](C)CN([C@@H](C)CO)C2=O | 0.7
C[C@@H]1CN([C@@H](C)CO)C(=O)c2cc(NS(=O)(=O)c3ccccc3)ccc2O[C@@H](C)CCCCO[C@@H]1CN(C)S(=O)(=O)c1ccc(F)cc1 | -0.4
CC(C)NC(=O)Nc1ccc2c(c1)C(=O)N([C@@H](C)CO)C[C@H](C)[C@@H](CN(C)S(=O)(=O)c1cccs1)OCCCC[C@@H](C)O2 | 0.1
COc1ccc(NC(=O)Nc2ccc3c(c2)C(=O)N([C@@H](C)CO)C[C@H](C)[C@@H](CN(C)C(=O)C2CCCCC2)OCCCC[C@@H](C)O3)cc1 | -1.1
C=CC1c2cc(O)c(OC)cc2CCN1Cc1sc2ccccc2c1Cl (stereo unspecified) | 0.0
C[C@H](CO)N1C[C@H](C)[C@@H](CN(C)C)Oc2c(NS(=O)(=O)c3ccc(F)cc3)cccc2C1=O | -0.3
CC(C)NC(=O)Nc1ccc2c(c1)C(=O)N([C@H](C)CO)C[C@@H](C)[C@H](CN(C)Cc1ccncc1)OCCCC[C@H](C)O2 | -0.2
C[C@H](CO)N1C[C@H](C)[C@H](CN(C)C(=O)Nc2ccc3c(c2)OCO3)Oc2ccc(NC(=O)Cc3ccccc3)cc2CC1=O | 0.0
C[C@@H]1CN([C@@H](C)CO)C(=O)CCCn2nncc2CO[C@H]1CN(C)C(=O)c1ccncc1 | -1.0

These rows are one share of the data; count on the stated rates, not on these rows.
